# TRPML1 inh – blocks the human TRPML1 channel | Q9GZU1 | TRPML1-inducible cells, Ca2+ dye fluorescence, FDSS; active compounds read low; inhibition of EC80 agonist-evoked calcium signal | activity change, negative = inhibition, % (test concentration not listed) | 390,000 tested, 0.02% active | AID 624415; in the data active means activity change below about -50%; inconclusive means about -30% to -50%; inactive means above about -30%;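 also: stimulus is agonist 54-4 at its EC80 concentration; % is scaled to controls: 0 for no effect and ±100 for the full control effect; compound concentration not given in the record; the text of the record puts the active cut at -80%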
#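 Tet-induced TRPML1-DL cells loaded with Ca8 no-wash calcium dye were read kinetically on FDSS. Compound addition was followed by EC80 agonist 54-4 (4 uM final); inhibition was read over 110 s.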
# CtBP-E1A inh – CtBP/E1A binding inhibition. AlphaScreen GST-E1A/His-CtBP binding, 1536-well; active compounds read low; control for the full effect not named in the record. AID 651724. activity change, % (no concentration beside the values). 340,000 tested, 0.49% active; in the data active means activity change below about -65%; inconclusive means about -30% to -65%; inactive means above about -30%; also: % is scaled to controls: 0 for no effect and ±100 for the full control effect
#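 Steps: dispense buffer (Tris pH 8.0, NaCl 300 mM, TCEP 1 mM, BSA, Tween 20); add 5X protein mix (GST-E1A, His-CtBP, 125 nM each); pin 23 nL compound; 2 h at 37 °C, dark; add 5X beads (50 ug/mL); 1 h; read.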
# TRPML1 agonist – agonists of human TRPML1 channel; Q9GZU1; TRPML1-expressing cells, Ca2+ dye fluorescence, FDSS; host cell line not named in the record; reference of the full effect not given here; activation, % (no concentration beside the values); 410,000 tested, 0.12% active; in the data active = activation above about 50%; inconclusive = about 30% to 50%; inactive = below about 30%; also: 0% is about no effect; the text of the record puts the active cut at 80%
#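 Tetracycline-induced TRPML1-DL cells are seeded and incubated overnight before loading with a no-wash Ca2+ dye and quencher. Agonist activity is taken from the 110 s fluorescence read following compound pin-transfer on an FDSS, before EC80 54-4 challenge.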
# D2 ag – human D2 receptor agonism in beta-arrestin assay; 360,000 tested, 0.084% active; activation, % (concentration not given with the values); DiscoveRx PathHunter D2 beta-arrestin, luminescence, 90 min; 100% = 57 uM dopamine signal; P14416; AID 624465; in the data active = activation above about 40%; inconclusive = about 15% to 40%; inactive = below about 15%; also: compound concentration not given in the record; the text of the record calls up to 30% inactive
#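 Agonist mode: compounds alone added to overnight-plated D2 PathHunter cells for 90 min at 37 C, with 57 uM final dopamine (EC100) defining full response. Beta-arrestin recruitment detected by chemiluminescent reagent, read after 1 h at ambient temperature.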
# PINK1 modulator – modulators of PINK1 expression; PINK1 immunofluorescence, high-content cytometry, 24 h; Potency, µM (doses to about 76.6 µM), for inactives: at the highest dose activation (PINK1 increase), most hits filed as activators; 410,000 tested, 0.2% active; AID 624263; active = well fitted activation curve with a large enough effect; inconclusive = small, poorly fitted or top-dose-only effect; inactive = flat fitted curve, though single readings scatter; cell line not stated here;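 also: potency is read from the fitted curve at half-maximal effect; % of control where 0% means no effect; nearly all actives have a fitted effect of over 65% in size; a mitochondrial uncoupler was the plate control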
#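 Fluorescence from anti-PINK1 antibody, together with nuclear and cell stains, was scanned on a laser-scanning cytometer. Before staining, stable-line cells were incubated 24 hours with compounds at 5 concentrations; primary antibody 12 h at 10 degrees C.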
# Six1-Eya2 blk – inhibitors of human Six1/Eya2 interaction; AlphaScreen GST-Six1/His-Eya2 binding, biochemical; active compounds read low; control for the full effect not named in the record; 360,000 tested, 0.56% active; Q15475+O00167; activity change, % (no concentration beside the values); in the data active = activity change below about -65%; inconclusive = about -30% to -65%; inactive = above about -30%; also: % is scaled to controls: 0 for no effect and ±100 for the full control effect
# Target sequence (O00167 whole entry, looked up): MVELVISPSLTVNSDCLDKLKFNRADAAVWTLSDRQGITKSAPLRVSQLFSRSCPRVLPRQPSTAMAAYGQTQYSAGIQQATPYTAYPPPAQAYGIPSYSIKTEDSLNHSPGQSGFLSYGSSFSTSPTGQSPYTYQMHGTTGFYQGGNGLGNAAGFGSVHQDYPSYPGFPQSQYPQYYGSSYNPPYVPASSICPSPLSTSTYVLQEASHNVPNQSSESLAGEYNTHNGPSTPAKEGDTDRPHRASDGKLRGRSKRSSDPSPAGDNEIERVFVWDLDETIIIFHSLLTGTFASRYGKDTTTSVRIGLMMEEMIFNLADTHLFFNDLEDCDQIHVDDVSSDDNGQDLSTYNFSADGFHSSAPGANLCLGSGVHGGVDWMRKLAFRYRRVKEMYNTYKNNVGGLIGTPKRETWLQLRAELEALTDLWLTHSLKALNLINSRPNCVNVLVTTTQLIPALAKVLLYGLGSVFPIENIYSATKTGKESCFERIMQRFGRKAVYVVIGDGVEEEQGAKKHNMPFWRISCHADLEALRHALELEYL
# Target sequence (Q15475 whole entry, looked up): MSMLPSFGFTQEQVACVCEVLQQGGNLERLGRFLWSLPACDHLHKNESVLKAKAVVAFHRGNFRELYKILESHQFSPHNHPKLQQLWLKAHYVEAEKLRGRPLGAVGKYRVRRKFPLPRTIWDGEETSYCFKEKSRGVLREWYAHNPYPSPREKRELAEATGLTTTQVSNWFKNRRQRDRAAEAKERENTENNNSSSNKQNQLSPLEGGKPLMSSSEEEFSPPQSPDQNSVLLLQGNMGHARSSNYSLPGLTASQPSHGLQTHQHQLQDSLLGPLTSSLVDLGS
#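 Six1/Eya2 binding was read as AlphaScreen signal after compounds were pinned into GST-Six1 plus His-tagged Eya2 (5X stock 250/500 nM) in pH 8.0 Tris/NaCl/TCEP buffer, beads added, then incubated 1 h, 37 C, dark.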
# Starred values were filed as active, the others as inactive; ? = inconclusive; . = no result given; & = joins results of further samples; [ ] = remark or other dose.
SMILES,TRPML1 inh,CtBP-E1A inh,TRPML1 agonist,D2 ag,PINK1 modulator,Six1-Eya2 blk
FC(F)(F)c1cccc(N2CCN(Cc3nnc(-c4ccc5c(c4)OCO5)o3)CC2)c1,0,.,-1.1,.,-0.7%,.
CCN(CC)c1ccc(/C=N/NC(=O)Cc2ccc(OC)c(OC)c2)cc1,7,-17,2.2,-9.6,1.2%,-14
CCN1CCN(C(c2cc(OC)c(OC)c(OC)c2)c2nnnn2C(C)C)CC1 (centres undefined),-5,12,-0.5,-2.1,1.8%,8
Cc1cccc(N2C(=O)C(O)=C(C(=O)c3cccs3)C2c2cccc(Oc3ccccc3)c2)n1 (centres undefined),-1,0,0.7,-1.0,-0.1%,8
CCC(=O)N1CCN(CCN=CC2=C(O)CC(C)(C)CC2=O)CC1,-2,0,3.7,-1.3,2.8%[38.3 µM],2
CCOC(=O)N1CCN(C(=O)C2c3cc(OC)c(OC)cc3C(=O)N3CCc4ccccc4C23)CC1 (centres undefined),6,4,1.3,-3.0,-1.8%,-2
CCOC(=O)c1cc(C)n(CC2CCC(C(=O)Nc3ccc(C(=O)OC)cc3)CC2)c1C (centres undefined),8,.,0.0,.,0.8%,.
Cc1ccc(CNC(=O)COC(=O)c2nc(-c3ccccc3)oc2C)cc1,-9,8,1.7,-0.3,1.4%,0
Cc1nn(C)c(Cl)c1CN1CCCC(CO)(Cc2cccc(Cl)c2)C1 (centres undefined),8,.,2.1,0.5,0.2%,-5
CCC(CO)Oc1cc(NC(=O)c2ccccc2)c2ncn(C(C)C)c2c1 (centres undefined),8,2,0.2,0.2,0.3%,-5
CCCCC1CC(C)(C(=O)CSc2nc3ccccc3s2)OC1=O (centres undefined),-8,19,0.8,-1.3,2.5%,0
Cc1nc2ccccn2c1C(=O)CSc1ccc(Cl)cc1Cl,-1,1,-0.3,-1.1,11%,-1
O=C(O)Cn1ccc2cc(S(=O)(=O)N3CCCCCC3)ccc21,-3&9,3,-0.4&0.9,-4.2,0.9%&2.0%,7
CCOC(=O)c1sc(N)c(C#N)c1COC(=O)CNC(=O)c1cc(OC)c(OC)c(OC)c1,-4,?,1.6,8.0,-0.3%[38.3 µM],-21
COc1cc(OC)cc(C(=O)NNC(=O)C2CCC2)c1,-5,6,-0.4,-4.6,0.4%,2

# Results in PINK1 modulator and Six1-Eya2 blk, for 2 of the compounds above:
Molecule | PINK1 modulator | Six1-Eya2 blk
Cc1cccc(N2C(=O)C(O)=C(C(=O)c3cccs3)C2c2cccc(Oc3ccccc3)c2)n1 (centres undefined) | -0.1% | 8
FC(F)(F)c1cccc(N2CCN(Cc3nnc(-c4ccc5c(c4)OCO5)o3)CC2)c1 | -0.7% | .

# Next compounds:
SMILES,TRPML1 inh,CtBP-E1A inh,TRPML1 agonist,D2 ag,PINK1 modulator,Six1-Eya2 blk
Cc1onc(-c2ccccc2Cl)c1C(=O)NCc1nc(-c2ccccc2)no1,-14,5,3.6,0.6,-1.9%,10
CC(=O)NCc1nc2cccnc2n1Cc1ccccc1,11,.,-0.9,.,0.6%,.
Cc1ccc(C)c2[nH]c(=O)c(CN(Cc3ccc4c(c3)OCO4)Cc3nnnn3Cc3ccco3)cc12,-18,-4,-0.4,-1.6,2.8%,-17
COc1ccc(/C(C)=C2\SC(=S)N(CCC(=O)O)C2=O)cc1,9,3,0.1,7.2,-1.0%[38.3 µM],-2
CNC(C)C#Cc1ccc2oc3cc(C)c(C)cc3c(=O)c2c1 (centres undefined),-25,-3,2.4,-5.5,-1.6%,3
NS(=O)(=O)c1ccc(CCNC(=O)/C=C/c2ccc([N+](=O)[O-])cc2)cc1,-13,0,-0.1,?,-0.6%,-1
CC1(c2nnnn2-c2ccc3c(c2)OCCO3)CCC(=O)N1CCc1ccccc1F (centres undefined),.,-5,-0.5,.,-0.8%,10
Cc1oc(-c2ccccc2F)nc1Cn1c(SCc2cccc(C(F)(F)F)c2)nc2ccncc21,5,.,-0.6,.,3.2%,.
CC(C(=O)N1CCN=C1c1ccccc1)N1C(=O)c2ccccc2C1=O (centres undefined),-4,.,-0.6,-5.0,0.5%,-2
Cc1cc(NS(=O)(=O)c2ccc(NC(=O)c3c(F)c(F)c(F)c(F)c3F)cc2)nc(C)n1,20,-14,-0.2,-2.7,-1.1%,-16
CCOC(=O)C1CCCN(C(=O)c2cncc(Br)c2)C1 (centres undefined),-3,6,-1.0,-3.2,0.2%,3
Cn1cc(CN2CCCCC2CO)c(-c2ccc(Oc3ccccc3)cc2)n1 (centres undefined),9,-5,0.1,-5.0,-0.1%,11
COc1ccc(C)cc1C(=O)CCC(=O)N1CCN(c2ccccc2F)CC1,-6,-1,1.3,1.0,0.9%,-1
COc1cc(CNCc2cccc(OC)c2OC)cc(OC)c1,23,-5,0.4,-6.0,1.4%,1
COc1ccc(C(=O)n2cc(C(=O)c3cc(C)ccc3O)cn2)cc1OC,26,2,1.0,-2.3,-1.6%,3
CCC(=O)[C@@H](C)[C@@H](OC(C)=O)[C@H](C)C[C@@H](C)[C@H]1OC(=O)C[C@@]2(O)CC=C(C)C(O2)C(C)=CCCC[C@H](O[C@H]2C[C@@H](OC(N)=O)[C@H](OC(C)=O)[C@@H](C)O2)C=C[C@H](C)C[C@H]1C,.,-7,0.0,.,4.1%,-12
COc1ccc(CCNC(=O)c2ccc3nc(-c4ccco4)c(-c4ccco4)nc3c2)cc1OC,13,?,3.4,9.5,1.9%,?
O=C(CC1C(=O)NCCN1Cc1ccc(F)cc1)NCCOc1cccnc1 (centres undefined),23,10,0.7,-3.1,1.0%,-6
Cc1ccc2c(c1)Cc1nc3ccccc3nc1-2,-15,-3,1.1,0.6,-0.8%,-8
O=C(O)c1cccc(Nc2nc3ccccc3nc2NS(=O)(=O)c2ccc(F)cc2)c1,-15,-12,1.9,-3.6,3.6%,-4
CC(=O)Nc1ccc(NC(=O)CSc2nnc3c4ccccc4n(C)c3n2)cc1,13,-1,1.6,-0.8,7.8%,-16
COc1cc2c(cc1OC)C(C)N(C(=O)C(NC(=O)c1ccccc1)C(C)C)CC2 (centres undefined),17,1,0.5,4.7,2.7%,-1
Cc1cc(C(=O)NC(=S)Nc2cccc(C(=O)O)c2C)ccc1[N+](=O)[O-],-18,.,1.2,-6.4,1.0%,-4
Cc1ccc(NC(=O)c2ccc(CSc3nccc(C)n3)cc2)cc1,-2,1,6.3,1.3,-0.3%,6
Cc1cc2nnc(SCC(=O)NCC(c3ccccc3)N(C)C)n2c2ccccc12 (centres undefined),26,5,1.9,-6.1,-2.8%,-2
COC(=O)c1c(SCC(=O)Nc2ccccc2C(F)(F)F)[nH]c2ccc(Cl)cc2c1=O,-8,.,0.4,.,1.3%,.
N#Cc1ccccc1NC(=O)CSc1ncn[nH]1,-4,.,-0.1,.,0.9%,.
CN(C)c1ccc(CNC(=O)CCCN2C(=O)CCn3nc(-c4cn(C)c5ccccc45)cc32)cc1,-4,.,1.8,.,0.3%,.
Cc1ccc(-c2noc(CCC(=O)NC3CCN(Cc4ccccc4)CC3)n2)cc1,19,-11,-0.2,1.2,0.3%,9
Clc1ccc(NC2(c3nnnn3C3CCCCC3)CCCCC2)cc1,29,-1,0.0,2.0,1.6%,1
COC(=O)c1sccc1S(=O)(=O)Nc1ccc(C(O)(C(F)(F)F)C(F)(F)F)cc1,-7,5,-0.1,7.0,6.2%,4
CC(C)N1C(=O)N(c2ccccc2)C(C)(O)CC1(C)C (centres undefined),2,3,0.1,-1.4,1.6%,1
CCN(CC)S(=O)(=O)c1ccc(NC(=O)COC(=O)CNS(=O)(=O)/C=C/c2ccccc2)cc1,-7,-81*,2.4,-0.3,-1.3%,-14
COc1ccc(C(=O)NCCCCc2ccccc2)cc1,-7,3,1.4,-3.5,-0.3%,14
CC(=O)OCCNc1cc(N2CCN(C)CC2)c2noc3c2c1C(=O)c1ccccc1-3,23,?,0.0,-1.5,3.0%,-29
CC(C)(OC1OC(CO)C(O)C(O)C1O)[C@H]1Oc2ccc3ccc(=O)oc3c2[C@H]1O (some centres undefined),-6,.,-0.3,-1.8,0.9%,14
COCCn1c(=O)[nH]c2cc(C(=O)N3CCN(c4cccc(C)c4C)CC3)ccc2c1=O,-5,4,0.4,11,9.1%,0
CCOC(=O)N1CCN(C(=O)C2CC(=O)N(Cc3ccc(OC)cc3)C2)CC1 (centres undefined),4,3,-0.7,-0.5,-1.6%,-1
c1ccc2c(c1)c1ccccc1n2CN1CCOCC1,3,1,1.0,-2.8,-1.1%,2
O=C(Nc1ccccc1Cl)C1Cc2ccccc2O/C1=N\O (centres undefined),31,.,2.9,-2.0,0.8%,-7
C=CCN(c1ccccc1OC)S(=O)(=O)c1ccc(Cl)c(C(=O)Nc2ccc(N3CCOCC3)cc2)c1,17,-3,0.2,-0.1,0.3%,-15
COc1cccc(NC(=O)CC(c2ccc(OC(C)C)cc2)c2ccccc2OC)c1 (centres undefined),-5,6,1.4,-3.4,?,5
Cc1ccc2cccc(OCc3cccc([N+](=O)[O-])c3)c2n1,8,0,1.8,-0.7,4.6%,2
Cc1c(CC(=O)N2CCN(C(=O)C3COc4ccccc4O3)CC2)c(=O)oc2cc(O)c(Cl)cc12 (centres undefined),9,3,1.3,7.7,1.5%,-10
O=C(CCc1nc(-c2ccccc2F)no1)NC1CCCCCC1,-9,0,0.2,-1.8,-2.3%,-3
O=C(NCC(c1ccco1)N1CCCC1)c1cc(S(=O)(=O)N2CCCCC2)ccc1Cl (centres undefined),3,.,-0.2,2.6,0.3%,1
CC1=CC(C)(C)NC(=S)N1c1ccc(C)c(C)c1,19,-12,2.0,-6.3,0.8%,-3
O=C(NCc1ccco1)c1ccc(CN2CCOCC2)cc1,6,-1,2.7,0.2,?,6
COc1ccccc1OCC(=O)NCC1CCCN(C(=O)c2cccc(C)c2)C1 (centres undefined),2,6,-1.1,-2.9,1.1%,0
O=C(O)c1ccc(-n2nnnc2SCc2ccccc2F)cc1,-2,0,0.2,0.6,-0.1%,8
O=C(O)CC12CC3CC(C1)CC(n1ncc(NCc4ccccc4)c(Cl)c1=O)(C3)C2,3,4,1.1,-1.8,-0.1%,1

# One compound at a time, from the list above:
# O=C(NCC(c1ccco1)N1CCCC1)c1cc(S(=O)(=O)N2CCCCC2)ccc1Cl (centres undefined) as listed: TRPML1 inh = 3; CtBP-E1A inh = .; TRPML1 agonist = -0.2; D2 ag = 2.6; PINK1 modulator = 0.3%; Six1-Eya2 blk = 1
# CC1=CC(C)(C)NC(=S)N1c1ccc(C)c(C)c1 as listed: TRPML1 inh = 19; CtBP-E1A inh = -12; TRPML1 agonist = 2.0; D2 ag = -6.3; PINK1 modulator = 0.8%; Six1-Eya2 blk = -3
# COc1ccccc1OCC(=O)NCC1CCCN(C(=O)c2cccc(C)c2)C1 (centres undefined) as listed: TRPML1 inh = 2; CtBP-E1A inh = 6; TRPML1 agonist = -1.1; D2 ag = -2.9; PINK1 modulator = 1.1%; Six1-Eya2 blk = 0

# Screening data: PubChem, National Center for Advancing Translational Sciences (NCATS)

# Outcome played no part in choosing rows; about 1% have a hit in one of these screens.
